Screens from PubChem.
VDR inhibitor: inhibitors of human vitamin D receptor; hit rate 0.93% among 400,000; VDR-SRC2-3 peptide fluorescence polarization, 2 h; P11473; Potency, µM, without a hit: max response, negative = inhibition, most hits filed as inhibitors; active = well fitted inhibition curve with a large enough effect; inconclusive = small, poorly fitted or top-dose-only effect, or another doubt; inactive = no such curve, though single readings can be large or run the other way; also: series mostly up to about 120 µM
Target sequence (P11473 whole entry, looked up): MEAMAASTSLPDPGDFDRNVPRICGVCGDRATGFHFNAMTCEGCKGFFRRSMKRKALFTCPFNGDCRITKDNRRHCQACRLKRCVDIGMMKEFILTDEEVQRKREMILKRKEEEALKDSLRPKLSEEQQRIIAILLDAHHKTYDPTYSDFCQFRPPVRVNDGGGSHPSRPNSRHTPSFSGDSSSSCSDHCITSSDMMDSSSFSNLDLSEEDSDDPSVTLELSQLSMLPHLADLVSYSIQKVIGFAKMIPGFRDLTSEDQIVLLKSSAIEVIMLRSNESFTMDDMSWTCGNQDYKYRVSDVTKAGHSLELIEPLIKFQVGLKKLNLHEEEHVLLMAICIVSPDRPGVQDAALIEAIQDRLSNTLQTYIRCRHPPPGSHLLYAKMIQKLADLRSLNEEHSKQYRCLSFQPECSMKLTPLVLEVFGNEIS
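After 23 nl compound addition and a short centrifugation, plates sat for 2 hours at ambient temperature; polarization of fluorescence then indicated loss of VDR binding to peptide SRC2-3.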
Active calls of the source: *; ? = inconclusive; & = joins results of further samples. % is scaled to controls: 0 for no effect and ±100 for the full control effect; potency is read from the fitted curve at half-maximal effect.

SMILES	VDR inhibitor
C=CCc1ccc(OCCCNCc2ccccc2)c(OC)c1	-27.5%
Cc1cccc2sc(NS(=O)(=O)c3ccccc3)nc12	-13.2%
O=C(CSc1nnc(Cc2ccccc2)o1)NC1CC2CCC1C2 (centres undefined)	14.2%
COc1ccc(NS(=O)(=O)c2ccc(C)c(C(=O)N(C)Cc3ccc(OC)cc3OC)c2)cc1	-6.8%
Cc1cc(OC(C)C(=O)NC2CCN(Cc3ccccc3)CC2)c2c(C)cc(=O)oc2c1 (centres undefined)	-6.2%
Cc1ccc(C(=O)N/C(=C/c2ccccc2)C(=O)NCC2CCCO2)cc1 (centres undefined)	12.6%
CCOC(=O)C1=NNC2(CC(=O)N(c3cc(C)cc(C)c3)C2=O)C1 (centres undefined)	11.4%
O=C(Cn1nnc(-c2ccccc2NC(=O)c2ccco2)n1)NC1CCCCC1	-7.0%
Cc1ccc(/C=C/c2ccc(=O)n(Cc3ccc(Cl)cc3Cl)n2)cc1	0.1%
C=CCNC(=O)c1ccccc1NC(=O)C1COc2ccccc2O1 (centres undefined)	4.8%
CCCn1c(Cc2ccccc2)nnc1SCC(=O)N1CCOCC1	4.7%
C[C@@H](NC(=O)Cn1cnc2c(NCc3ccccc3)ncnc21)c1cccc2ccccc12	-24.9%

Reprinted at random: 3 compounds from above, in no set order.
SMILES	VDR inhibitor
CCOC(=O)C1=NNC2(CC(=O)N(c3cc(C)cc(C)c3)C2=O)C1 (centres undefined)	11.4%
O=C(Cn1nnc(-c2ccccc2NC(=O)c2ccco2)n1)NC1CCCCC1	-7.0%
Cc1cccc2sc(NS(=O)(=O)c3ccccc3)nc12	-13.2%

(cont.)
SMILES	VDR inhibitor
CCCC12CN3CC(C)(CN(C1)C31CCCCC1)C2=O	3.2%
COc1ccc(NC(=O)CSc2nn3c(=O)c(C)nnc3s2)cc1	21.0%
CCOC(=O)N1CCc2c(sc3c2c(=O)n(Cc2ccccc2)c(=O)n3CC(=O)Nc2ccc(C)c(C)c2)C1	9.1%
Cc1ccc(S(=O)(=O)NCC(c2ccccc2)N2CCN(c3ccc(F)cc3)CC2)cc1 (centres undefined)	8.9%
O=C(Nc1ccccc1)c1cccc(Cn2cc(C(F)(F)F)ccc2=O)c1	-9.9%
O=C(Oc1ccccc1)c1cccc(N2C(=O)CCC2=O)c1	0.3%
O=C(CC1C(=O)NCCN1CC1CCCCC1)NCc1ccccc1Cl (centres undefined)	7.7%
CN(C)C(=O)c1ccc(-c2cc(C(F)(F)F)nn2C)s1	14.2%
O=S(=O)(c1ccc2ccccc2c1)N1CCc2ccccc21	-12.7%
Nc1ccc(C(=O)N/N=C/c2ccc(N3CCOCC3)s2)cc1	-11.9%
O=S(=O)(Nc1cccc(-c2ccc(N3CCCCCC3)nn2)c1)c1ccccc1F	-9.3%&-4.4%
COc1ccc(C2=NN(c3nc4ccccc4s3)C(=O)C2)cc1	2.5%
CC1CCCC(NC(=O)C2CCN(S(=O)(=O)N3CCOCC3)CC2)C1C (centres undefined)	-2.8%
CCOc1ccc(N2CC(C(=O)NCCN3C(=O)S/C(=C/c4cccnc4)C3=O)CC2=O)cc1 (centres undefined)	-13.3%
COc1ccc(C(=O)Nc2cccc([N+](=O)[O-])c2)cc1Br	5.2%
O=C(NCCCN1CCOCC1)c1cc2c(s1)CSC2	-3.0%
COc1cc2c(-c3ccc4[nH]ccc4c3)c(-c3ccc(C#N)cc3)oc(=O)c2cc1OC	2.5%
COc1ccc2c(CSc3nc4nc(C)cc(C)n4n3)cc(=O)oc2c1	3.5%
COc1ccc(C(=O)NCC23C=CC(O2)C2C(=O)N(Cc4ccccc4)C(=O)C23)cc1 (centres undefined)	2.1%
COc1ccc(/C=N/Nc2nc(Nc3ccccc3)nc(N3CCCCC3)n2)cc1OC	0.2%
Cn1nnnc1SCCCNCc1cc(Cl)ccc1OCc1ccccc1	8.9%
CC(=NNC(=O)c1cccc(S(=O)(=O)N2CCCC2)c1)c1ccccc1	4.7%
CCOC(=O)NC1(C(F)(F)F)NC(=O)N(Cc2ccco2)C1=O (centres undefined)	-19.2%
CN1CCN(c2ccc(NC(=S)NC(=O)c3cccc4c(Br)cccc34)cc2)CC1	-1.4%
O=C(O)COc1ccc(/C=C/C(=O)c2ccc(C3CCCCC3)cc2)cc1	?
O=C(Cc1ccccc1)Nc1cccc([N+](=O)[O-])c1	-11.1%
COCCN(Cc1nc(C(c2ccccc2)c2ccccc2)no1)C(C)C	-2.8%
Cc1ccc(Nc2nc(C)cc(C)c2C(N)=O)c(C)c1	-16.1%
CCC1(c2ccccc2)NC(=O)N(CC(=O)N(c2ccccc2)C2CCS(=O)(=O)C2)C1=O (centres undefined)	-12.2%
CCn1c(SCC(=O)C(C)(C)C)nnc1-c1cnccn1	-1.7%
CCOc1ccc(NC(=O)CCSc2ccc3ccccc3n2)cc1	-5.1%
O=C(c1ccccc1)N1c2nc(-c3ccco3)nn2C2(CCCCC2)[C@@H]2CCCC[C@@H]21	-8.8%
CCN(CC)S(=O)(=O)c1cccc(NC(=O)COC(=O)c2cccs2)c1	13.6%
Cc1cn2c(=O)c(S(=O)(=O)N3CCN(c4cc(Cl)ccc4C)CC3)c(C)nc2s1	-0.4%
c1ccc2c(c1)NC1(CCCC1)n1c-2nc2ccccc21	-15.5%
COc1ccc(CNC(=O)CN(c2ccc(OC)cc2)S(=O)(=O)c2c(C)nn(C)c2C)cc1	10.3%
CCCc1nc2c(c(=O)c3ccccc3n2C)c(=O)n1C1CCCCCC1	-29.9%
N#CCC(=O)Nc1ccc(C(=O)NCCc2c[nH]c3ccccc23)cc1	8.1%
Cc1ccc(-n2ncc(C(=O)NCCN3CCOCC3)c2C2CCN(C(=O)OC(C)(C)C)CC2)c(C)c1	7.1%
COc1ccc(SCCC(=O)NCc2ccncc2)cc1	-6.8%
CCn1c(=O)n(C2=C(CO)CN(CC3CCCCCCC3)CC2)c2ccccc21	-9.0%
CC(=O)COc1cc(C)cc2oc(=O)c(C)c(C)c12	3.5%
COCCn1c(=S)[nH]c2sc3c(c2c1=O)CCCC3	-18.3%
COc1cccc(Cn2c(SCC(=O)N3CCN(c4ccc(F)cc4)CC3)nc3ccccc32)c1	12.7%
Cc1cc(C)c(OCC(=O)Nc2ccc(S(=O)(=O)N3CCCC3)cc2)c(C)c1	11.1%
COc1ccccc1N(CC(=O)NC(C)(C)C)C(=O)C1CSC(=O)C1 (centres undefined)	5.6%
Cc1ccc(NC(=O)C2CCCN(S(=O)(=O)c3ccc(C)cc3)C2)cc1 (centres undefined)	4.4%
c1ccc(-n2nnc3cnccc32)cc1	?
CC(NC(=O)OCc1ccccc1)C(=O)N1CC(O)CC1C(=O)O (centres undefined)	-2.9%
COc1ccc(NS(=O)(=O)c2cccc3nonc23)c(OC)c1	-7.6%
CCOc1ccc(C(C)=O)cc1COC(=O)c1cnc(Cl)c(Cl)c1	-15.2%
COc1cccc(C(=O)NCC2(c3ccccc3)CCCC2)c1	-8.6%
COc1ccc(NC2=C(c3ccc(C(F)(F)F)cc3)C(=O)c3ccccc32)cc1	-4.7%
O=S(=O)([N-]c1nc2ccccc2nc1-[n+]1ccccc1)c1ccc(Cl)cc1	-10.4%
COCc1cc(C)n(CC(=O)NCc2ccccc2)c(=O)c1C#N	18.7%
COc1c(C)cccc1C(=O)Nc1ccc(-c2nc3ccccc3s2)c(Cl)c1	-0.8%
COc1cccc(-c2ocnc2C(=O)Nc2ccc(N3CCOCC3)cc2N2CCOCC2)c1	3.7%
CC(C)Oc1ccc(CNC(=O)CC(c2ccccc2)c2cc(Cl)ccc2O)cc1 (centres undefined)	10.7%
Cc1cc(OCc2cc(C(=O)N3CCN(C)C(=O)[C@@H]3C)no2)cc(C)c1Cl	14.8%
N/C(=N\OC(=O)CCCOc1ccccc1)c1ccc([N+](=O)[O-])cc1	16.5%

Look-ups from the results shown:
`COc1ccc(NC2=C(c3ccc(C(F)(F)F)cc3)C(=O)c3ccccc32)cc1` in VDR inhibitor = -4.7%
`Cc1cc(OCc2cc(C(=O)N3CCN(C)C(=O)[C@@H]3C)no2)cc(C)c1Cl` in VDR inhibitor = 14.8%
`COc1c(C)cccc1C(=O)Nc1ccc(-c2nc3ccccc3s2)c(Cl)c1` in VDR inhibitor = -0.8%
`CCOc1ccc(C(C)=O)cc1COC(=O)c1cnc(Cl)c(Cl)c1` in VDR inhibitor = -15.2%
`COCc1cc(C)n(CC(=O)NCc2ccccc2)c(=O)c1C#N` in VDR inhibitor = 18.7%

Next part.
SMILES	VDR inhibitor
COc1cc2c(cc1OC)CN(CC(=O)Nc1ccc(F)cc1F)CC2	6.8%
CC1CCCC(NC(=O)COC(=O)c2cc(S(=O)(=O)N3CCOCC3)ccc2F)C1C (centres undefined)	0.1%
Cc1ccc2c(c1)N(S(=O)(=O)c1ccc(F)cc1)C(C(C)(C)C)CO2 (centres undefined)	-17.0%
O=C(CCN1C(=O)c2ccccc2C1=O)Nc1ccc2c(c1)OCCO2	3.4%
COc1ccc(-c2c(-c3ccccc3OC)sc3ccccc23)cc1C=O	-29.0%
COc1ccc(NC(=O)COC(=O)Cn2nnc3ccccc32)cc1	5.7%
COc1ccccc1C(=O)NC(=S)Nc1ccccc1N1CCCCC1	-5.8%
O=C(O)COc1ccc(Br)cc1/C=C1/SC(=O)N(CC(=O)N2CCCC2)C1=O	?
CN(C)C(=O)c1ccc(NC(=O)COC(=O)C2=COCCO2)cc1	6.2%
Cc1ccccc1S(=O)Cc1ccc(C(=O)NC2CCCCCC2)o1 (centres undefined)	3.2%
CCCn1c(=O)c(C(=O)OCC)c(O)c2cc(Br)ccc21	-13.3%
COc1cc(OC)cc(C(=O)NCC(=O)N2CCN(c3ccc(O)cc3)CC2)c1	6.9%

4 structures from above, arranged by molar mass, rising.
SMILES	VDR inhibitor
CCCn1c(=O)c(C(=O)OCC)c(O)c2cc(Br)ccc21	-13.3%
COc1ccc(-c2c(-c3ccccc3OC)sc3ccccc23)cc1C=O	-29.0%
CC1CCCC(NC(=O)COC(=O)c2cc(S(=O)(=O)N3CCOCC3)ccc2F)C1C (centres undefined)	0.1%
O=C(O)COc1ccc(Br)cc1/C=C1/SC(=O)N(CC(=O)N2CCCC2)C1=O	?

Continued:
SMILES	VDR inhibitor
CC1(c2ccccc2Cl)NC(=O)N(CC(=O)NC(=O)NCc2ccco2)C1=O (centres undefined)	-15.3%
O=C1CCCN1C(=O)COc1ccc([N+](=O)[O-])cc1	7.3%
CCN(CC)CCNC(=O)CCc1nnc2ccc(N3CCC(C)CC3)nn12	-16.2%
COc1cccc(C2CC(c3cccs3)=NN2C(=S)Nc2ccccc2)c1OC (centres undefined)	11.1%
C(=N\Nc1ccccn1)/c1ccc2c(c1)OCCO2	-8.2%
COC(=O)Cc1ccc(NC(C)=O)cc1	-3.0%
O=C(/C=C/C=C/c1ccc2c(c1)OCO2)N1CCCCC1	-6.1%&-0.2%
O=C(CSc1nnc(CNC(=O)c2cccs2)o1)Nc1cccc(C(F)(F)F)c1	-12.3%
CCc1nnc(NS(=O)(=O)c2ccc(NC(=O)OC)cc2)s1	5.5%
Cc1ccccc1CNC(=O)c1cc2cc(S(=O)(=O)N3CCCCC3)ccc2n1C	4.3%
CCn1nc(C(=O)OCc2cccc(S(=O)(=O)N(C)C)c2)c2ccccc2c1=O	-18.2%
Cc1ccc(-c2nnc3ccc(SCC(=O)OCc4ccccc4)nn23)cc1	-1.8%
O=C1C=C(NCc2ccco2)CCC1	-4.3%
CCCc1cc(=O)n2nc(N3CCC(C(=O)NCc4ccc(C)o4)CC3)sc2n1	-12.3%
O=C(Nc1cccc(S(=O)(=O)N2CCOCC2)c1)C12CC3CC(CC(C3)C1)C2	7.7%
O=S(=O)(Nc1cccc(-c2cn3c(n2)SCC3)c1)c1ccccc1	-17.1%
O=C(Nc1c2c(nn1-c1ccccc1)CS(=O)(=O)C2)c1ccccc1C(F)(F)F	-0.5%
CCN(CC)S(=O)(=O)c1ccc2c(c1)c(=O)c(C(=O)N(C)Cc1ccccc1)cn2C	-5.5%
C=CCn1c(SCC(=O)NC2CCS(=O)(=O)C2)nc2scc(C3CC3)c2c1=O (centres undefined)	5.8%
CSc1nnc(-c2cc3c(s2)-c2ccccc2CC3)o1	8.2%
O=C(CN1C(=O)c2ccccc2C1=O)NC1(C(=O)O)CCCC1	10.4%
O=C(Cc1cccc(NC(=O)C2CCCN(C(=O)C3CCC3)C2)c1)Nc1cccc(C(=O)N2CCCC2)c1 (centres undefined)	6.5%
COc1ccccc1-n1c(SCC(=O)Nc2ccc(C)cc2)nc(O)cc1=O	-17.3%&1.1%
CCOC(=O)c1c(N)n(-c2ccc(OCC)cc2)c2nc3ccccc3nc12	2.2%
COc1ccc(CNC(=O)Cn2cccc2C(=O)c2ccccc2)cc1	-6.9%
Cc1[nH]c(=O)c(C#N)c(C)c1[N+](=O)[O-]	16.9%
CN(Cc1ccccc1Cl)C(=O)C1CCC(=O)N(C2CCCCCC2)C1 (centres undefined)	-14.6%
FC(F)(F)c1ccc(Cl)c(-n2c(Cc3cccs3)n[nH]c2=S)c1	2.2%
Cc1cc(C)c2oc(C(=O)Nc3ccc(S(=O)(=O)N(C)c4ccccc4)cc3)cc(=O)c2c1	7.2%
COc1ccc2c(c1)C(SCC(=O)NCCc1ccc(Cl)cc1)CC(C)(C)O2 (centres undefined)	-14.8%
CCC1CCCCN1S(=O)(=O)c1ccc(NC(=O)C2CCN(C(=O)c3ccco3)CC2)cc1 (centres undefined)	-14.5%
O=C(NCC12CC3CC(CC(C3)C1)C2)c1cc2nc(-c3ccc(F)cc3)cc(C(F)(F)F)n2n1	8.5%
COc1ccc(CNC(=O)C(=O)Nc2c3c(nn2-c2ccccc2)CSC3)cc1	-12.8%
CCOC(=O)c1c(C)sc(Sc2ccc(Cl)cc2[N+](=O)[O-])c1OC	0.9%
O=C(CSc1nnnn1-c1ccc(O)cc1)c1ccc(F)cc1	-25.6%
Cc1ccc(CNC(=O)c2ccc3c(c2)NC(=O)C(CS(=O)(=O)Cc2ccc(F)cc2)N3)cc1 (centres undefined)	10.5%
C=CCc1ccc(OCCCCNC2CCCC2)c(OC)c1	-0.6%
Cn1nnc2c(N3CCN(c4cccc(Cl)c4)CC3)ncnc21	11.0%
COc1ccc(C=C2NC(=S)NC2=O)cc1	-20.3%

A portion of the library; rates above refer to the full screens.
